Screens as filed in PubChem BioAssay.
Bead autofluor – flagged as autofluorescent in microsphere protease counterscreen; compound autofluorescence counterscreen, microsphere flow cytometry; hits give high values; fluorescence intensity (test concentration not listed); 3.1% of 360,000 active;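 active = at least 3 SD above the mean of all compounds, about 16000 in these data; inconclusive = too few beads counted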;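 also: 100 nL of 1 mM stock went into each well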
Sa RN4220 lethal – growth inhibition of S. aureus RN4220, primary screen, OD600; 16 h; inhibition, % (no concentration beside the values); 0.33% of 330,000 active;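 active = z-score of -3 or lower and OD600 up to 0.18 on both plates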;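 also: plate controls were untreated cells for no effect and reference antibiotic for full effect; stock transfer was 100 nL into about 80 µL; one replicate is shown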
BJeLR lethal – MLPCN primary cell-based screen for lethality selective to Ras in HRASV12 cells. BJeLR (HRASV12) viability, CellTiter-Glo ATP luminescence, 48 h; reference of the scale not given here. inhibition, % (test concentration not listed). 0.17% of 300,000 active. AID 1554, 2009;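 active = replicate mean above 50%; inconclusive = above 50% but judged a plate artefact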;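 also: 50 nL library stock added to about 25 µL; numbers are from one replicate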
Mtb hypoxia rep – PubChem AID 1159583; M. tuberculosis hypoxia-regulated fluorescent reporter, fluorescence; fluorescence inhibition, % (no concentration beside the values); 0.1% of 300,000 active;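 active = 35 to 45% if threefold the growth effect, above 45% if 1.5-fold the growth effect; inactive = the rest, general growth blockers included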;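 also: wells of about 50 µL received 100 nL stock; 0% = vehicle wells and 100% = reference inhibitor wells; whole bacteria with a GFP reporter of the hypoxia response; strong numbers were not always called active; many hits fall short of the cut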
PrP UTR inh – inhibition of PrP 5' UTR reporter expression; cell-based PrP 5' UTR mRNA reporter, plate reader; inhibition, % (test concentration not listed); 0.35% of 340,000 active;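 active = every replicate at 50% or more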;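 also: 0 = median of the neutral control wells; tested in H4 reporter cells; numbers are from one replicate; inactives centre near -14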
Sa ugtP lethal – growth inhibition of ugtP-null S. aureus, primary screen, RN4220 ugtP deletion, OD600; 0.54% of 330,000 active; growth inhibition, % (test concentration not listed); AID 1259309, 2017; 16 h; some inactives read as strong as hits;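 active = z-score under -3 and OD600 up to 0.15 on both plates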;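 also: plate controls were untreated wells for no effect and antibiotic for full effect; wells of about 80 µL received 100 nL stock; the first replicate is given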
Mtb hypoxia rep growth – recorded beside Mtb hypoxia rep, whose call it bears; growth inhibition, %; measured here: M. tuberculosis growth (absorbance);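 0% = vehicle and 100% = reference antibiotic; read after six days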
* marks the source's active call; other numbers are inactive results; ? = inconclusive; · = not tested or not shown.

SMILES	Bead autofluor	Sa RN4220 lethal	BJeLR lethal	Mtb hypoxia rep	Mtb hypoxia rep growth	PrP UTR inh	Sa ugtP lethal
CC(C)P(=O)(Cc1cccc(C#N)c1)C(C)C	11829	4.1	1	0	-1	-6	5
CC(C)N1CN=C(Nc2nc3ccccc3o2)NC1	3370	3.8	-8	1	-1	-33	7
O=C(CSc1nc2c(sc3ccccc32)c(=O)n1CCCN1CCCC1)NCc1ccco1	5606	11	6	14	-1	-2	6
Cc1ccc(S(=O)(=O)NCCC(=O)NC2CCC(C)CC2)cc1 (stereo unspecified)	3448	2.7	·	15	7	-15	5
Cc1cnc(NC(=O)Nc2ccccc2)c(C)n1	3711	5.6	-6	-7	-3	-7	1
O=C(COC(=O)C1CC1)Nc1nc(-c2ccc(F)c(F)c2)cs1	6872	·	6	·	·	-2	·
NC(=O)C1=CC(c2ccc3c(c2)OCO3)CC(OCc2ccc(CO)cc2)O1 (stereo unspecified)	·	1.5	·	8	13	·	0
CCN(CC)C(=O)CC(c1cc(OC)c(OC)c(OC)c1)c1c(O)cc(OC)cc1OC (stereo unspecified)	4069	1.4	-5	8	10	-11	1
COc1cc(C(=O)N/N=C/c2coc3ccccc3c2=O)cc(OC)c1OC	3577	·	-5	·	·	-12	·
NC(=O)COc1ccc(C23CC4CC(CC(C4)C2)C3)cc1	2587	6.3	-10	6	6	-64	24
Cc1ccc(C(=O)OCC(=O)NCc2ccc3c(c2)OCO3)o1	4072	2.0	·	6	8	-17	7
COc1cccc(C=O)c1OCCCOc1cccc2cccnc12	3656	12	12	1	8	-50	1
COc1ccc(OCC(=O)N2CCN(C(=O)c3ccco3)CC2)cc1	4838	-1.7	-2	·	·	-15	-4
COC(=O)[C@H](C)NC(=O)Nc1ccc(S(N)(=O)=O)cc1	9915	1.5	2	1	1	-15	-7
CSc1nc(N2CCOCC2)c2c(c1C#N)CC(C)(C)OC2	2739	0.8	-2	·	·	1	-7
CC(C)C1COC(c2cccc3ccccc23)=N1 (stereo unspecified)	3620	5.2	-1	8	7	-58	11
Cc1ccc(-c2nc(-c3ccccn3)no2)cc1[N+](=O)[O-]	5623	5.3	1	-1	6	3	-12
CN1CCN(S(=O)(=O)c2ccc(NC(=O)c3ccco3)cc2)CC1	3065	-4.1	13	13	9	-7	-1
COc1ccc(-c2nc3c4ccccc4ccn3c2CN2CCOCC2)cc1OC	3652	2.3	-6	9	7	-21	0
COCCn1c(N)c(N(Cc2ccccc2)C(=O)c2cc3ccccc3o2)c(=O)[nH]c1=O	4334	12	-11	-7	5	-17	8
Cc1cc(C)cc(-c2nc(-c3ccncc3)no2)c1	5535	5.9	12	10	3	-66	7
COc1ccccc1N1CCN(CCCNC(=O)Nc2ccccc2)CC1	3451	0.0	0	·	·	-17	3
O=C(Nc1ccc(S(=O)(=O)N2CCOCC2)cc1)C1CCCCC1	4223	0.1	-2	4	2	3	9
Cc1ccccc1C(=O)OC1OC(=O)C(Cl)=C1Nc1ccccc1 (stereo unspecified)	3463	1.4	2	-10	-1	-26	-5
CCCCN(CC)C(=O)c1ccccc1Oc1ccccc1	2070	8.7	15	11	7	-16	5
COc1ccc(N2CC(C(=O)NN=Cc3ccc(C)cc3)CC2=O)cc1 (stereo unspecified)	·	-5.0	·	1	11	·	-9
Cc1ccc(C)c(OCc2cc(C(=O)N3CCN(c4ccccc4)CC3)no2)c1	6283	-4.4	-7	12	13	-57	-4
COc1ccc(CNC(=O)c2cccnc2SC)cc1OC	5577	·	2	·	·	-23	·
COc1ccccc1CNC(=O)Cn1ccc2cc(S(=O)(=O)N3CCCC3)ccc21	5345	-0.5	-2	4	1	-12	1
O=C(NC1=NCCS1)c1sc2cc(F)ccc2c1Cl	2558	-7.3	-11	·	·	-85	-8

Profiles from above:
COc1ccccc1N1CCN(CCCNC(=O)Nc2ccccc2)CC1 across the screens: Bead autofluor = 3451; Sa RN4220 lethal = 0.0; BJeLR lethal = 0; Mtb hypoxia rep = ·; Mtb hypoxia rep growth = ·; PrP UTR inh = -17; Sa ugtP lethal = 3
O=C(NC1=NCCS1)c1sc2cc(F)ccc2c1Cl across the screens: Bead autofluor = 2558; Sa RN4220 lethal = -7.3; BJeLR lethal = -11; Mtb hypoxia rep = ·; Mtb hypoxia rep growth = ·; PrP UTR inh = -85; Sa ugtP lethal = -8

Remaining list, next part.
SMILES	Bead autofluor	Sa RN4220 lethal	BJeLR lethal	Mtb hypoxia rep	Mtb hypoxia rep growth	PrP UTR inh	Sa ugtP lethal
Cc1cc(-c2csc(NC(=O)c3ccc(=O)[nH]c3)n2)c(C)n1Cc1ccccc1	4424	6.7	-3	-1	7	-39	-1
Cn1c(NC(=O)/C=C/c2ccccc2)cc(=O)n(C)c1=O	10271	·	0	·	·	-24	·
COc1ccc(C(CNC(=O)c2ccc(NS(=O)(=O)c3ccc(F)c(C)c3)cc2)N(C)C)cc1 (stereo unspecified)	?	1.0	1	1	-2	-14	1
Clc1ccc(CNc2nc(N3CCOCC3)nc(N3CCOCC3)n2)cc1	4576	11	23	·	·	-6	-1
C=CCN1CCc2c(cc(O)c(O)c2Br)[C@@H](c2ccccc2)C1	6340	·	-1	·	·	45	·
Cc1ccn(C)c(=N)c1	4666	·	-1	·	·	-37	·
O=C(OCCc1cc2ccccc2c(=O)o1)c1ccc(C(F)(F)F)cc1	4065	12	·	7	6	-8	11
O=C(COC(=O)/C=C/c1cccc(C(F)(F)F)c1)NC1CCCCCC1	9193	2.3	·	5	0	-25	0
CCN(CC)S(=O)(=O)c1ccc(C)c(NC(=O)COC(=O)c2ccc(C)c(S(=O)(=O)N3CCOCC3)c2)c1	9595	4.5	-5	11	12	-26	4
COc1ccc(C(=O)c2c[nH]c(C(=O)NCc3cccnc3)c2)cc1	2382	-0.1	-8	·	·	-15	-2
COC(=O)c1ccc(C23CC4(C2)C(CN(Cc2ccc(C(F)(F)F)cc2)C4c2ccccc2)C3c2ccc(C(F)(F)F)cc2)cc1 (stereo unspecified)	·	9.8	·	0	12	·	0
COc1ccc(S(=O)(=O)NCCc2ccccc2)c2cccnc12	3174	3.9	-7	15	0	-13	13
CCCCNC(=S)Nc1cccc(C(C)=O)c1	2097	4.1	3	3	8	-11	2
O=C(c1ccc(N2CCN(C(=O)c3ccc(F)cc3F)CC2)cc1)c1cccc(F)c1	5511	1.7	-12	12	7	-17	6
CCOC(=O)C1CCN(c2ncnc3cc(OC)c(OC)cc23)CC1	4725	-3.4	-2	-6	8	-5	-1
COC(=O)C(C)(C(=O)OC)c1ccc([N+](=O)[O-])cn1	·	5.1	-16	1	-5	-20	4
CNS(=O)(=O)c1cccc(C(=O)OCc2cc(C(C)=O)ccc2OC)c1	4185	0.9	1	-7	3	-15	-3
CCN1C(=O)NC(=O)C2(CCCC2)C1=O	2870	5.3	·	5	4	-13	8
CCCn1c(SCC(=O)Nc2nc(C)c(C(=O)OC)s2)nnc1C(C)C	4884	-1.0	0	-1	0	0	-1
O=C(Nc1ncc([N+](=O)[O-])s1)C1COc2ccccc2O1 (stereo unspecified)	6194	92*	9	11	17	-32	91*
CCCNc1ncnc2[nH]ncc12	4126	1.5	·	-1	6	0	5
COc1ccc(-c2c3c(=O)n(C)c(=O)n(C)c3cn2-c2cc(OC)ccc2OC)cc1	2343	2.9	3	·	·	3	-5
Cc1cc(C)c(CN2CCN(C(=O)Cn3cnc4c(NCc5ccccc5)ncnc43)CC2)c(C)c1	2947	-5.7	·	-8	8	-1	-20
Cc1cc(OCC(=O)N2CCC(C(=O)O)CC2)c2c3c(c(=O)oc2c1)CCC3	5162	1.5	-5	·	·	-9	-3
O=C(CSc1n[nH]c(-c2ccccc2)n1)Nc1ccccc1O	?	7.2	4	19	14	5	-1
COC(=O)Cc1ccc(NC(=S)NCc2ccc(Cl)cc2)cc1	2010	-2.6	-11	3	12	-26	-8
CCc1ccc(S(=O)(=O)NN=Cc2ccc3c(c2)OCO3)cc1	·	0.4	·	2	-2	·	11
Cc1nc(C(=O)NNC(=O)c2ccccc2)c(C(F)(F)F)o1	5590	11	4	6	14	-17	-4
COc1ccc2c(c1)CC/C2=N\OC(=O)c1cccc(C)c1	2447	·	5	·	·	-139	·
Cc1ccccc1OCC(=O)NN=Cc1ccco1	·	5.2	·	5	3	·	10
Cc1c(NC(=O)CSc2nnc(Nc3ccccc3)s2)c(=O)n(-c2ccccc2)n1C	2488	-1.5	-12	-4	-15	-7	3
CCn1c2ccccc2c2cc(/C=N/NC(=O)c3cc(O)cc(O)c3)ccc21	4665	·	8	·	·	-26	·
COc1ccccc1NC(=O)CSc1nc(O)cc(=O)[nH]1	12322	1.2	6	11	4	-24	6
O=C(CNC(=O)C1COc2ccccc2O1)NN=Cc1ccc([N+](=O)[O-])cc1 (stereo unspecified)	·	1.4	·	10	10	·	-3
Cc1cc(N2CCN(Cc3cn(C)nc3-c3ccccc3F)CC2)cc(C)n1	3987	-0.1	34	-16	-4	15	1
COc1ccc(Cc2noc(CN(C)CC3CCN(Cc4ccccc4)CC3)n2)cc1OC	6141	-1.2	6	10	13	-21	4
CN(C)CCCn1c(-c2ccccc2)nc(=S)c2c1CCCC2	19594*	5.2	-8	10	-1	-3	12
CC1=C(C(=O)Nc2cc(C(=O)N3CCN(c4cccc(C)c4)C(C)C3)ccc2C)SCCO1 (stereo unspecified)	5682	-0.4	1	8	15	-10	0
COc1cc(NC(=O)COC(=O)CC(C)(C)C)c(C)cc1[N+](=O)[O-]	2387	3.7	0	-2	-3	-1	8
CC(=O)CCc1oc2ccccc2c1-c1ccccc1	5305	9.2	-3	9	-10	-19	18
O=C(N/C=N/O)C1=NOC(CNc2ncc(C(F)(F)F)cc2Cl)C1 (stereo unspecified)	3237	·	-8	·	·	-22	·
Cc1cccc(C(=O)Nc2c(C#N)c(C)c(C)n2Cc2ccccc2)c1	2359	-4.7	11	·	·	-5	-3
CC(C)c1cc(CNC(=O)C2CCC(=O)N(CCc3ccc(Cl)cc3)C2)on1 (stereo unspecified)	5515	0.8	-3	11	3	-6	7
O=C(CNCc1ccccc1)Nc1ccccc1-c1ccccc1	2554	7.1	4	-4	6	-16	-2
CCc1c(C)nc2cc(-c3ccccc3)[nH]n2c1=O	3383	-0.5	-9	-16	0	-66	-5
Cc1ccc(-c2csc3ncnc(N4CCN(C)CC4)c23)cc1C	3122	5.7	2	19	4	-5	2
Cc1ccc(NC(=O)COc2nsnc2N2CCOCC2)cc1Cl	5823	2.7	-8	1	-5	-10	-2
N#Cc1c(NC(=O)c2nc3ncccn3n2)sc2c1CCCCC2	4174	-1.4	·	·	·	-6	0
O=C(Cn1ncc2c3ccccc3n(Cc3ccccc3F)c2c1=O)N1CCC2(CC1)OCCO2	3325	2.2	-17	3	5	-4	-2
Cc1ccc(NC(=O)C2CCN(C(=O)OC(C)(C)C)CC2)cc1S(=O)(=O)N1CCCCC1	3074	-1.8	·	0	0	-13	-5
(continued)
SMILES	Bead autofluor	Sa RN4220 lethal	BJeLR lethal	Mtb hypoxia rep	Mtb hypoxia rep growth	PrP UTR inh	Sa ugtP lethal
O=C(COc1ccccc1[N+](=O)[O-])Nc1ccc(CN2CCOCC2)cc1	2531	1.6	-6	9	2	-18	10
Cn1c(CNC(=O)Cc2ccc3c(c2)OCO3)nnc1SCc1ccccc1	4984	-7.1	0	·	·	-21	4
Cc1oc(-c2cccs2)nc1CS(=O)CC(=O)NCc1ccc2c(c1)OCO2 (stereo unspecified)	4910	4.1	2	16	2	-9	7
O=P1(NC2CCCC2)COc2ccccc2OC1	3500	-3.1	-7	9	6	-17	0
COCc1cc(=O)[nH]c(SC)n1	3707	2.2	6	-5	-7	-22	5
CCOc1ccc(NC(=O)CC2C(=O)N(c3ccccc3)C(=S)N2Cc2ccccn2)cc1 (stereo unspecified)	9610	-3.2	-3	-1	10	-15	-4
CCC(C)C(N)c1cn(C(CCC(=O)O)C(=O)N2CCNCC2)nn1 (stereo unspecified)	·	2.6	·	2	3	·	-7
Nc1cccc([N+](=O)[O-])c1	4803	3.1	7	-1	-4	6	2
CC(=O)Nc1nc(C(=O)O)cs1	3414	2.8	-2	6	-3	16	-1
CCCCn1c(SCC(=O)Nc2nnc(C)s2)nc2c1c(=O)n(C)c(=O)n2C	22970*	6.0	-3	6	6	-10	13
Cc1ccc(C(=O)N/C(=C\c2ccc3c(c2)OCO3)C(=O)Nc2ccc(C(=O)O)cc2)cc1	5359	0.8	-2	8	-1	-12	6
COc1ccc(C2=NOC(Cn3nc(C(=O)NCc4ccc(OC(F)(F)F)cc4)cc3-c3ccccc3)C2)cc1 (stereo unspecified)	4179	-6.7	1	10	0	-13	-3
